Cruzain noTriton: cruzain (T. cruzi) inhibition without detergent. P25779. purified cruzain, Z-FR-AMC fluorescence, no detergent. Potency, µM, without a hit: max response, negative = inhibition, usual class: inhibitors. hit rate 2.3% among 200,000. AID 1476; active = well fitted curve in the direction sought with a large enough effect; inconclusive = small, poorly fitted or top-dose-only effect, or another doubt; inactive = no such curve, though single readings can be large; an effect the other way counts as inactive or inconclusive;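 note: plate controls were enzyme without inhibitor for no effect and buffer without enzyme for full effect; nearly all actives have a fitted effect of over 40% in size; top concentration of the series not given in the record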
Target sequence (P25779 123-467 limits assumed): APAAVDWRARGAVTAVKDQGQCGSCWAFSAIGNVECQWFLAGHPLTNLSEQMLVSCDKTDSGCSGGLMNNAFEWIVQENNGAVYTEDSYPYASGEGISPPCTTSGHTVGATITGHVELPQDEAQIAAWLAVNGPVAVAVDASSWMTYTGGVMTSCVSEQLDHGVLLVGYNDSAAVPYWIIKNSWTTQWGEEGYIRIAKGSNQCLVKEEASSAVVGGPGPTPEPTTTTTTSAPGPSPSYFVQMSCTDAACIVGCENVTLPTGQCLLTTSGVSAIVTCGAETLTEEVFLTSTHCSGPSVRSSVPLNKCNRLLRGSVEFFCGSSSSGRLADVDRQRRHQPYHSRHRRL
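Detergent-free condition (0.00005% Triton X-100) in acetate buffer pH 5.5 with DTT. 1.5 nM enzyme and compound were pre-mixed 15 min, then 2 uM Z-FR-AMC substrate added; reaction progress from fluorescence change between first and third reads (60 s).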
NS1 inh: blocks influenza NS1 protein function. AID 2326. hit rate 0.4% among 270,000. Potency, µM (highest dose often 46.1 µM), for the others: at the top dose activity, positive = more growth. S. cerevisiae slowed by influenza A NS1, growth recovery by OD600; note: actives are rising curves; nearly all actives have a fitted effect of over 50% in size
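OD600 was taken as the measure of yeast growth restored by compound in an NS1-expressing S. cerevisiae strain. Cells had been washed out of glucose medium and diluted 1:100 into galactose -URA medium, pH 6.0.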
Marburg entry inh: blocks Marburg virus binding to or entry into cells | Marburg virus pseudotyped entry inhibition, cell reporter; control for the full effect not named in the record; about a third of the inactives were read at about 46 µM | Potency, µM (highest dose often 37.8 µM), inactives show at the top dose activity change, negative = inhibition, usual class: inhibitors | hit rate 1.8% among 300,000 | AID 540276; active = well fitted inhibition curve with a large enough effect; inconclusive = small, poorly fitted or top-dose-only effect, or effect the other way; inactive = flat fitted curve, though single readings scatter; tested in HEK293 cells; about a fifth of its hits are not listed in these tables; note: % is set by controls: 0 for no effect and ±100 for the full control effect; luciferase read-out
SARS PLpro yeast: blocks SARS-CoV papain-like protease in a yeast assay; S. cerevisiae expressing SARS-CoV PLpro, growth rescue; control for the full effect not named in the record; Potency, µM (series often up to 32.9 µM), inactives show at the top dose activity, positive = growth rescue; hit rate 0.19% among 330,000; AID 485353; note: 0% is about no effect; nearly all actives have a fitted effect of over 55% in size; growth read by luminescence after 48 h
2A StopGo: lowers the luciferase signal of an FMDV 2A StopGo reporter; AID 1159524; hit rate 1.2% among 410,000; Potency, µM (series often up to 57.9 µM), inactives show top-dose signal change, negative = less light; human cells with a luciferase reporter of 2A StopGo recoding; control for the full effect not named in the record; active = well fitted falling curve with a large enough effect; inconclusive = small, poorly fitted or top-dose-only effect; inactive = no such curve, though single readings can be large or run the other way; tested in HEK293T cells; note: % is set by controls: 0 for no effect and ±100 for the full control effect; nearly all actives have a fitted effect of over 45% in size; luciferase light after 4 h
Cruzain inh Det: inhibitors of Trypanosoma cruzi cruzain with detergent; P25779; purified cruzain, Z-FR-AMC fluorescence, 0.01% Triton; Potency, µM, for the others: max response, negative = inhibition, hits mostly inhibitors; hit rate 0.43% among 200,000; active = well fitted curve in the direction sought with a large enough effect; inconclusive = small, poorly fitted or top-dose-only effect, or another doubt; inactive = no such curve, though single readings can be large; an effect the other way counts as inactive or inconclusive;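 note: plate controls were neutral wells for no effect and buffer without enzyme for full effect; nearly all actives have a fitted effect of over 40% in size; top concentration of the series not given in the record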
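In this qHTS format, compounds are incubated with 1.5 nM cruzain for 15 min at room temperature before 2 uM Z-FR-AMC is added. Release of AMC is followed at 360/450 nm, and progress is taken as the 60 s fluorescence difference.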
RE007 growth inh: less growth of the S. pombe RE007 Vpr strain; hit rate 0.21% among 360,000; AID 651644; S. pombe RE007 Vpr strain, BacTiter-Glo ATP luminescence, 24 h; control for the full effect not named in the record; Potency, µM (highest dose often 92.2 µM), for the others: top-dose activity change, negative = less growth; active = well fitted falling curve with a large enough effect; inconclusive = small, poorly fitted or top-dose-only effect; inactive = no such curve, though single readings can be large or run the other way;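 note: % is set by controls: 0 for no effect and ±100 for the full control effect; nearly all actives have a fitted effect of over 50% in size; the assay follows cell death caused by Vpr and the record does not say whether a fall means rescue or toxicity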
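Fission yeast strain RE007, carrying one chromosomally integrated HIV-1 vpr copy, was seeded at OD 0.01 in PMG+AL medium with 23 nL pinned compound. After 24 h at 30 °C and 99% humidity, viability was read by BacTiter-Glo luminescence.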
Lassa entry inh: blocks Lassa virus binding to or entry into cells. Lassa virus pseudotype entry inhibition, cell reporter; control for the full effect not named in the record. hit rate 1.2% among 300,000. Potency, µM (series often up to 37.9 µM), without a hit: at the top dose activity change, negative = inhibition, actives largely listed as inhibitors. AID 540256; active means well fitted inhibition curve with a large enough effect; inconclusive means small, poorly fitted or top-dose-only effect, or effect the other way; inactive means flat fitted curve, though single readings scatter; tested in HEK293 cells; note: % is set by controls: 0 for no effect and ±100 for the full control effect; nearly all actives have a fitted effect of over 50% in size; luciferase read-out
The depositor's hits bear a star; ? = inconclusive; nt = no result given; [ ] = another dose, or the depositor's remark. Unless noted, calls come from the whole dose curve; as a rule, active means well fitted rising curve with a large enough effect; inconclusive means small, poorly fitted or top-dose-only effect; inactive means no such curve, though single readings can be large or run the other way. Potency is the fitted concentration of half-maximal effect.

SMILES	Cruzain noTriton	NS1 inh	Marburg entry inh	SARS PLpro yeast	2A StopGo	Cruzain inh Det	RE007 growth inh	Lassa entry inh
Fc1cccc(F)c1/C=N/N1CCOCC1	nt	nt	3%[46.1 µM]	2%	15%	nt	-8%	4%
COc1cccc(CNC(=O)C(c2ccc(Cl)cc2)C(C)C)c1 (stereo unspecified)	0%	7%	-3%	11%	-13%	-2.6%	-16%	5%
Cc1ccc(C)c(OCCCCN2CCNCC2)c1C	nt	?	nt	-2%	-6%	nt	-1%	nt
COc1cc(-c2ccno2)ccc1S(=O)(=O)N1CCN(c2cc(C)ccc2C)CC1	-9%	nt	nt	nt	-3%	-1.3%	nt	1%[46.1 µM]
O=C(c1ccccc1)N1CCN(c2ncnc3sc4c(c23)CCC4)CC1	2%	0%	?	-26%	22µM*	-2.6%	-15%	-18%
CCc1ccc(C(C(=O)NC2CCCC2)N(CCOC)C(=O)CCC(=O)Nc2cc(C)on2)cc1 (stereo unspecified)	nt	-8%	1%[46.1 µM]	-1%	-11%	nt	1%	20%[46.1 µM]
COc1ccc(NS(=O)(=O)c2cc(Cl)ccc2Cl)cc1S(=O)(=O)N1CCCCC1	nt	0%	7%[46.1 µM]	-1%	86%[activator]	nt	-5%	-7%
COC(=O)c1sccc1N/C=C(\C#N)S(=O)(=O)C(C)(C)C	nt	5%	-25%	0%	-17%	nt	-10%	4%
CC1(N2CCOCC2)CC2(O)C(=[N+]1[O-])CCc1c2no[n+]1[O-] (stereo unspecified)	-11%	-3%	-1%	2%	0%	2.8%	5%	5%
CCOCC(=O)Nc1cc(C(F)(F)F)ccc1Oc1cccc(Br)c1	6%	-42%	?	-12%	?	-4.1%	6%	-24%
O=C(c1ccc(-c2cccc(C(F)(F)F)c2)o1)N1CCN(c2ccccc2O)CC1	nt	-56%	?	3%	-21%	nt	-22%	?
COc1ccc2nc(NS(=O)(=O)c3ccc(NC(C)=O)cc3)sc2c1	-5%	-4%	9%	-3%	nt	-3.1%	11%	2%
CCCC(=O)NC(c1ccc(OC)c(OC)c1)c1c(O)ccc2ccccc12 (stereo unspecified)	?	10%	0%	-3%	31%[activator]	-15%	5%	60%[14.3 µM]
COc1ccc(NC(=O)CC2S/C(=N\c3nccs3)N(C)C2=O)cc1 (stereo unspecified)	nt	1%	?	0%	3%	nt	10%	0%
CCOC(=O)C1CCN(S(=O)(=O)c2cc3c4c(c2)CC(=O)N4CCC3)CC1	?	nt	nt	nt	0%	-1.4%	nt	-3%[46.1 µM]
O=C(Cc1cccc2ccccc12)NNC(=O)c1ccc(Br)o1	nt	1%	nt	10%	1%	nt	-9%	nt
Cc1ccc(C(=O)O/N=C2\CCS(=O)(=O)c3sccc32)cc1	0%	3%	16%	-7%	45%[activator]	3.9%	0%	-2%
COc1cccc(CN2CCN(C(=O)Nc3ccc([N+](=O)[O-])cc3)CC2)c1	nt	-3%	nt	1%	?	nt	-3%	nt
CCN(CC)S(=O)(=O)c1cccc(C(=O)OC2CCOC2=O)c1 (stereo unspecified)	nt	9%	?	2%	0%	nt	5%	11%[46.1 µM]
O=C(Nc1ccc(F)cc1)Nc1ccc2ccccc2n1	nt	0%	nt	0%	7%	nt	-7%	nt
O=C(COc1ccccc1)Nc1cccc(-c2ccc(N3CCOCC3)nn2)c1	nt	nt	-29%	-1%	-18%	nt	-1%	?
Cn1c(C(=O)N2CCN(Cc3ccc4c(c3)OCO4)CC2)cc2sccc21	8%	-6%	-11%	6%	-13%	2.8%	4%	?
CCc1ccc(S(=O)(=O)/N=C2\C=C(Nc3ccc(O)cc3)C(=O)c3ccccc32)cc1	nt	3%	?	-15%	35µM*	nt	-27%	4.5µM*
COc1ccc2nc(-c3ccccc3)cc(C(=O)OCC(=O)NC3CC3)c2c1	nt	nt	-21%	0%	-13%	nt	-10%	7%
Cc1ccc(CNC(=O)C2CCC(=O)N2C2CCCCC2)cc1 (stereo unspecified)	3%	-2%	?	-3%	11%	5.5%	5%	-2%
Cc1ccc(NC(=O)c2ccc(Cl)cc2Cl)cc1O	nt	-2%	nt	-1%	27%	nt	-15%	nt
COc1ccccc1C(=O)N=c1sc2c(C)ccc(OC)c2n1C	nt	3%	?	-1%	19%	nt	-11%	-22%[46.1 µM]
COc1ccc(-c2nnc(SCC(=O)Nc3ccccc3)n2C)cc1	-11%	-14%	9%	-1%	2%	1.2%	13%	8%
COc1ccc(COCC(CC(C)C)N2CCN(C(=O)c3cccc(C(F)(F)F)c3)CCC2=O)cc1 (stereo unspecified)	?	-23%	?	1%	0%	-0.4%	10%	?
COc1ccc(S(=O)(=O)NCCC(=O)NC(C)c2ccccc2)cc1 (stereo unspecified)	-4%	-10%	17%	3%	27%	-0.7%	14%	0%
O=C(Cc1ccc(-c2ccccc2)cc1)NCc1ccccc1	?	19%	-6%	14%	-6%	-0.7%	18%	?
COC(=O)c1c(NC(=O)CSc2ccccc2N)sc(C)c1C	nt	nt	?	-3%	?	nt	1%	?
Cc1ccc(OCC(=O)Nc2ccc(S(=O)(=O)Nc3cc(C)on3)cc2)c(Br)c1	-10%	nt	16%[46.1 µM]	nt	37%[activator]	-22%	nt	12%[46.1 µM]
Cc1ccc(NS(=O)(=O)c2cccc(C(=O)O)c2)cc1S(=O)(=O)N1CCOCC1	-7%	10%	-4%	-8%	-10%	-1.6%	-5%	6%
O=C(NC1(C(F)(F)F)NC(=O)N(c2ccc(F)c(Cl)c2)C1=O)c1ccncc1 (stereo unspecified)	5%	-6%	?	0%	-16%	-2.4%	-1%	17%
CC1CCN(C(=O)CSc2n[nH]c(-c3cccs3)n2)CC1	nt	0%	-6%[46.1 µM]	0%	-3%	nt	1%	?
COC(=O)Cc1ccc(OCc2ccc(Cl)nc2)cc1	nt	10%	-6%[46.1 µM]	-1%	13%	nt	33%	?
COc1ccc(CNC(=S)N/N=C(\C)c2ccc(OC)cc2)cc1	nt	-4%	-1%[46.1 µM]	1%	6%	nt	11%	?
CC(O)(CC(=O)CC(=O)c1ccccc1)c1ccccc1 (stereo unspecified)	nt	nt	0%	nt	4%	nt	-16%	-1%
O=C(CNC(=O)c1ccc2c(c1)OCO2)NCc1cccs1	nt	nt	-12%[46.1 µM]	-2%	3%	nt	8%	-12%[46.1 µM]
O=C(CN1C(=O)S/C(=C\c2ccc(C(=O)O)cc2)C1=O)Nc1ccccc1	nt	1%	nt	1%	-12%	nt	9%	nt
CC(=O)Oc1cc2c(C(=O)NCc3ccncc3)c(C)oc2c2ccccc12	nt	-4%	nt	-2%	-6%	nt	-2%	nt
O=c1c2cnn(-c3ccc(F)cc3)c2ncn1Cc1cccnc1	5%	-5%	-10%	0%	?	1.0%	-9%	-14%
O=C(COc1ccc(Cl)cc1)NCC(c1cccs1)S(=O)(=O)c1ccc(F)cc1 (stereo unspecified)	-12%	nt	nt	nt	-27%	-7.0%	nt	?
O=C(NCCCl)Nc1ncn[nH]1	nt	nt	-7%	nt	-3%	nt	6%	8%
CCCC(=O)Nc1ccc(OCC(=O)OC)cc1	4%	15%	19%[46.1 µM]	-5%	-19%	3.5%	14%	7%
O=C(NC(c1ccccc1)c1ccccc1)c1cccc(S(=O)(=O)NCc2ccccc2)c1	-22%	26%	?	-4%	-12%	-4.4%	7%	-15%
O=S1(=O)CC2NC(=S)N(c3cccc(Br)c3)C2C1 (stereo unspecified)	nt	-2%	nt	2%	20%	nt	0%	nt
O=c1[nH]c2ccc(Cl)cc2c(-c2ccccc2)c1[N+](=O)[O-]	nt	11%	nt	-9%	-8%	nt	9%	nt
CCC(=NCCc1ccccc1)c1c(O)[nH]c(=O)[nH]c1=O	nt	2%	0%	0%	-16%	nt	-10%	0%

New compounds follow:
SMILES	Cruzain noTriton	NS1 inh	Marburg entry inh	SARS PLpro yeast	2A StopGo	Cruzain inh Det	RE007 growth inh	Lassa entry inh
O=C(c1ccco1)N1CCN(C(=O)C2CC(c3ccccc3F)=NO2)CC1 (stereo unspecified)	nt	4%	nt	2%	-11%	nt	10%	nt
S=C(NCCc1ccccn1)Nc1cc(Cl)cc(Cl)c1	nt	-9%	?	0%	24%	nt	-5%	-25%[46.1 µM]
CC1(C)CC(=O)C2=C(C1)Nc1ccccc1NC2c1ccc(F)cc1 (stereo unspecified)	nt	2%	-17%[46.1 µM]	6%	-16%	nt	0%	-25%[46.1 µM]
CCc1ccc(/C(C)=N/NC(=O)C(O)c2ccccc2)s1 (stereo unspecified)	nt	nt	-2%	nt	43%[activator]	nt	1%	?
CCC(=O)N1C(Cc2ccccc2)COC1(C)C (stereo unspecified)	2%	20%	11%	13%	-6%	-1.6%	6%	19%
Cc1ccc(CNC(=O)c2ccc3c(c2)c(C)c(C)n3Cc2ccc(Cl)cc2)o1	?	nt	nt	nt	-4%	-1.2%	nt	1%[46.1 µM]
COc1c(Br)cc(Br)cc1C(=O)Nc1ccccc1N1CCCC1	nt	-3%	?	1%	?	nt	-14%	-28%
COc1cccc(Nc2nc(-c3ccccc3)nc3ccccc23)c1	nt	-73%	?	-11%	-23%	nt	?	?
O=C(Cc1ccccc1)NC(NCCCN1CCOCC1)(C(F)(F)F)C(F)(F)F	10%	-5%	11%	-2%	-3%	-0.1%	9%	5%
O=C(NC1CCc2ccccc21)C1CCN(S(=O)(=O)c2ccc(-n3cnnn3)cc2)CC1 (stereo unspecified)	-10%	-2%	-19%	1%	-18%	0.5%	0%	7%
Nc1c(C(=O)NCCc2ccccc2)nnn1Cc1ccc(Br)cc1F	nt	nt	1%[46.1 µM]	2%	5%	nt	3%	-7%
Nc1nonc1-n1nnc(C(=O)N/N=C/C2CCCCC2)c1-c1ccccc1	nt	5%	-1%[46.1 µM]	1%	11%	nt	3%	?
Cc1ccc(C)c(Oc2ccc(S(=O)(=O)N3CCN(C)CC3)cn2)c1	nt	nt	0%	-5%	-11%	nt	11%	?

High-throughput results as filed in PubChem.
